# Screening data as filed in PubChem BioAssay.
# Menin MLL FP FL = qHTS Assay for Inhibitors Targeting the Menin-MLL Interaction in MLL Related Leukemias: Competition With Fluorescein Labeled MLL-derived Peptide; FP activity change, % at 61.4 µM; 290,000 tested, under 10 active; Fluorescence polarization, fluorescein-MLL peptide displacement from menin; AID 1766, 2009; inconclusive = falling polarisation curve, or a change in total fluorescence; inactive = total fluorescence flat and polarisation flat or rising; no compound was filed as active; the % refers to the polarisation; negative = inhibition;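 note: % of control where 0% means no effect; inhibitors lower the polarisation; unlabelled MLL peptide was the positive control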
# gsp antag = qHTS for Antagonists of gsp, the Etiologic Mutation Responsible for Fibrous Dysplasia/McCune-Albright Syndrome: qHTS | Potency, µM (titrated, usually from 76.9 µM), for inactives: at the top dose activity change, negative = inhibition, most hits filed as inhibitors | gsp-mutant cells, cAMP HTRF, 30 min; control for the full effect not named in the record | 340,000 tested, 0.4% active; active = falling curve of any shape with a large fitted effect; inconclusive = falling curve, mostly with a smaller effect; inactive = flat or rising curve; cell line not stated here;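 note: intracellular cAMP measured with PDE inhibitor Ro 20-1724 present during compound exposure; potency is the fitted concentration of half-maximal effect; % is set by controls: 0 for no effect and ±100 for the full control effect; nearly all actives have a fitted effect of over 65% in size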
#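 G418-selected cells were plated in DMEM/10% FBS for 16-24 h at 37C, then treated with compounds plus the PDE inhibitor […] (300 uM solution added) for 30 min at 37C. Intracellular cAMP was measured by HTRF after 30 min lysis at room temperature.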
# ClpP mod = qHTS Assay for Activators of ClpP. ATP-dependent Clp protease proteolytic subunit (Bacillus subtilis (strain 168)), P80244. purified B. subtilis ClpP, FRET peptide cleavage, 20 min. Potency, µM (top dose mostly 57.5 µM), inactives show at the highest dose activity change, negative = active. 340,000 tested, 1.9% active; active = well fitted falling curve with a large enough effect; inconclusive = small, poorly fitted or top-dose-only effect; inactive = no such curve, though single readings can be large or run the other way; note: potency is the fitted concentration of half-maximal effect; the source files actives as falling curves though it sought activators and does not explain the sign; nearly all actives have a fitted effect of over 65% in size; many hits overshoot -100%
# Target sequence (P80244 whole entry, looked up): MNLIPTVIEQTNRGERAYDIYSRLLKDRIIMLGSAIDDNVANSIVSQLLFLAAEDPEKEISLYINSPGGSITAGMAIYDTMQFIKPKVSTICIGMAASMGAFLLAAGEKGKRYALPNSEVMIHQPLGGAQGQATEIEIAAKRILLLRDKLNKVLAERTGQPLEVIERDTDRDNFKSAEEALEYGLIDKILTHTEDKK
#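 Purified B. subtilis ClpP, 10 microg/mL final in Tris/HCl pH8 with KCl, BSA, glycerol and Tween-20, cleaved an Abz/nitrotyrosine-quenched decapeptide. Fluorescence (ex 320, em 430) was read at 0 and 20 min at room temperature. Delta was normalized to 5.8 microM ADEP and DMSO/no-enzyme controls.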
# TRPML1 blocker = qHTS for Inhibitors of the Human Mucolipin Transient Receptor Potential 1 (TRPML1). Mucolipin-1 (Homo sapiens), Q9GZU1. TRPML1-inducible cells, Ca2+ dye fluorescence, FDSS; hits give low values; inhibition of EC80 agonist-evoked calcium signal. activity change, negative = inhibition, % (concentration not given with the values). 390,000 tested, 0.02% active; in the data active means activity change below about -50%; inconclusive means about -30% to -50%; inactive means above about -30%;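 note: stimulus is agonist 54-4 at its EC80 concentration; % is set by controls: 0 for no effect and ±100 for the full control effect; compound concentration not given in the record; the text of the record puts the active cut at -80%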
#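 Calcium fluorescence in TRPML1-DL cells induced overnight with Tet: a 110 s read after compound pin addition, then a 110 s antagonist read after challenge with 54-4 at 4 uM final (EC80).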
# gsp agonist = qHTS for Agonist of gsp, the Etiologic Mutation Responsible for Fibrous Dysplasia/McCune-Albright Syndrome: qHTS; gsp mutant cells, cAMP HTRF, 30 min; control for the full effect not named in the record; Potency, µM (top dose mostly 76.9 µM), without a hit: at the top dose activation (cAMP increase), usual class: activators; 340,000 tested, 0.13% active; AID 624287, 2012; active = well fitted activation curve with a large enough effect; inconclusive = small, poorly fitted or top-dose-only effect, or another doubt; inactive = no such curve, though single readings can be large or run the other way; cell line not stated here;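 note: phosphodiesterase inhibitor Ro 20-1724 added with compounds to block cAMP breakdown; potency is the fitted concentration of half-maximal effect; nearly all actives have a fitted effect of over 60% in size; about a fifth of the inactives were tested at one dose only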
#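 Cells stably selected in G418 were plated at 2000/well, grown 16-24 hr, then given compounds in DMSO with the PDE inhibitor […] (300 uM solution added) for 30 min at 37C; cAMP was read by HTRF.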
# TRPV1 potentiator = HTS Assay for Compounds that Act as Potentiators of the Vanilloid Receptor 1. Transient receptor potential cation channel subfamily V member 1 (Homo sapiens), Q8NER1. TRPV1-expressing cells, Fluo-8 calcium influx, capsaicin EC20 potentiation; host cell line not named in the record; control for the full effect not named in the record. potentiation, % at 8.33 µM. 320,000 tested, 0.02% active. AID 540277, 2011; active means potentiation above 80%; inconclusive means 30% to 80%; inactive means below 30%; note: 0% is about no effect
# Target sequence (Q8NER1 whole entry, looked up): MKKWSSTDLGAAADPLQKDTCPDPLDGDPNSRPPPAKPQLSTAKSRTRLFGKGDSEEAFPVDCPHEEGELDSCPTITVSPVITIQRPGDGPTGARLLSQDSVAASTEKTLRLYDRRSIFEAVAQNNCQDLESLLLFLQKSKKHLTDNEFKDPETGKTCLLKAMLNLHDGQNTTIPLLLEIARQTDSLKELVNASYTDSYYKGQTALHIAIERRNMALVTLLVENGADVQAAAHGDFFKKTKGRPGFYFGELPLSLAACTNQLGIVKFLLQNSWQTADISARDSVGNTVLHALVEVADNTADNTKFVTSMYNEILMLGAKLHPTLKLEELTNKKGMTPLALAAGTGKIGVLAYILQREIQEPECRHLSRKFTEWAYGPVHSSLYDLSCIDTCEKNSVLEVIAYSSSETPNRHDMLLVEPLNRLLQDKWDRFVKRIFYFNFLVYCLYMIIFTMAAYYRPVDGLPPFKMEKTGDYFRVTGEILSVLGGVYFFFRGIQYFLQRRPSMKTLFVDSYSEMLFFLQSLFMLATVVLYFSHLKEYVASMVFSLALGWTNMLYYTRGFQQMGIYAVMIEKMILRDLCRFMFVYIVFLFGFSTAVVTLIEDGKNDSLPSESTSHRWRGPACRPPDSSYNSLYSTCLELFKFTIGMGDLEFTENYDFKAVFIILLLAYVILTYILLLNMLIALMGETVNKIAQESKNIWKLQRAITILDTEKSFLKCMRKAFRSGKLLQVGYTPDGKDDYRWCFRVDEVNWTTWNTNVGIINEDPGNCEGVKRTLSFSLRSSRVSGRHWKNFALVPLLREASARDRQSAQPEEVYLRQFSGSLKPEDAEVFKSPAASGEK
#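 TRPV1-expressing cells were cultured overnight at 35.5C and loaded with Fluo-8 calcium dye for 40 to 90 min at room temperature. After a 10 s baseline, compound was added and calcium influx was read kinetically for 3 min (ex 480/em 520 nm).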
# Sfp inh = qHTS Assay for Inhibitors of Bacillus subtilis Sfp phosphopantetheinyl transferase (PPTase) | AID 1490, 2009 | 310,000 tested, 3.5% active | 4'-phosphopantetheinyl transferase ffp (Bacillus subtilis), Q9F4F7 | Biochemical Sfp PPTase activity, qHTS | Potency, µM, without a hit: max response, negative = inhibition, usual class: inhibitors; active = well fitted inhibition curve with a large enough effect; inconclusive = small, poorly fitted or top-dose-only effect, or another doubt; inactive = no such curve, though single readings can be large or run the other way;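 note: the enzyme is Sfp with the accession as filed and its product quenches rhodamine fluorescence; potency is the fitted concentration of half-maximal effect; 0% = enzyme reaction without inhibitor and -100% = no enzyme wells; top concentration of the series not given in the record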
#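 Fluorescence-quenching assay with 15 nM Sfp, 5 uM rhodamine-CoA and 12.5 uM BHQ-2-labelled ybbR peptide in pH 7.6 Hepes/MgCl2 buffer. Enzyme was pre-incubated with compound for 15 min at room temperature. Rate was taken from the 30-min fluorescence change (525/598 nm).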
# * = called active by the depositor; ? = inconclusive; . = no result given; [ ] = another dose, or the depositor's remark.
SMILES,Menin MLL FP FL,gsp antag,ClpP mod,TRPML1 blocker,gsp agonist,TRPV1 potentiator,Sfp inh
Cc1ccc(CCNC(=O)C2CCN(S(=O)(=O)N3CCC4(CC3)OCCO4)CC2)cc1,-0.2,5%,-0.8%,-2,-1%,-4,2%
O=C1Nc2ccccc2C1c1ncc(C(F)(F)F)cc1Cl (stereo not given),-4.4,1%,-1.4%,-10,-3%,-11,?
CN(Cc1c(C(=O)N/N=C/c2ccccc2O)nnn1-c1nonc1N)C1CCCCC1,.,.,6.6%,11,-10%,.,.
COc1ccc(S(=O)(=O)N(C(C)=O)c2ccc(OC(C)=O)c3ccccc23)cc1[N+](=O)[O-],0.9,?,-3.8%,20,-48%[inhibitor],-4,9%
CC(=O)c1cccc(NS(=O)(=O)c2ccc(NC(=O)N3CCCCC3)cc2)c1,-1.6,8%,-8.0%,-1,-9%,-7,8%
COc1ccc(-c2noc(CCC(=O)NCC3CCN(Cc4cccc(C)c4)CC3)n2)cc1,4.2,7%,-0.8%,3,-1%,-1,6%
CC(C)(C)c1ccc(C(CC(=O)O)NC(=O)Cc2ccccc2)cc1 (stereo not given),-0.1,3%,.,-2,-1%,16,7%
Cc1cc(C(=O)OCC(=O)c2ccccc2)c2ccccc2n1,2.4,-1%,.,1,-16%[15.4 µM],-2,10%
CCCCn1c(N)c(N(CC(C)C)C(=O)c2cc(-c3ccco3)nc3ccccc23)c(=O)[nH]c1=O,.,14%,-13%,3,-13%,4,.
COc1ccc2cc(CN(CC3CCCO3)C(=O)Nc3ccccc3OC)c(=O)[nH]c2c1 (stereo not given),0.0,14%,.,1,-2%[15.4 µM],-45,4%

# Some values from the list:
# O=C1Nc2ccccc2C1c1ncc(C(F)(F)F)cc1Cl (stereo not given) in TRPML1 blocker is listed with -10
# COc1ccc(-c2noc(CCC(=O)NCC3CCN(Cc4cccc(C)c4)CC3)n2)cc1 in TRPML1 blocker is listed with 3
# CCCCn1c(N)c(N(CC(C)C)C(=O)c2cc(-c3ccco3)nc3ccccc23)c(=O)[nH]c1=O in ClpP mod is listed with -13%

# Random excerpt: 3 entries already listed, in no set order.
SMILES,Menin MLL FP FL,gsp antag,ClpP mod,TRPML1 blocker,gsp agonist,TRPV1 potentiator,Sfp inh
COc1ccc(-c2noc(CCC(=O)NCC3CCN(Cc4cccc(C)c4)CC3)n2)cc1,4.2,7%,-0.8%,3,-1%,-1,6%
Cc1cc(C(=O)OCC(=O)c2ccccc2)c2ccccc2n1,2.4,-1%,.,1,-16%[15.4 µM],-2,10%
Cc1ccc(CCNC(=O)C2CCN(S(=O)(=O)N3CCC4(CC3)OCCO4)CC2)cc1,-0.2,5%,-0.8%,-2,-1%,-4,2%

# (further entries)
SMILES,Menin MLL FP FL,gsp antag,ClpP mod,TRPML1 blocker,gsp agonist,TRPV1 potentiator,Sfp inh
O=C(CCc1nc(-c2ccccc2)no1)NC1CCCCCC1,.,-1%,0.6%,13,12%,-15,.
O=C(CCNC(=O)Cn1ccc2ccccc2c1=O)NCCCN1CCOCC1,-0.1,17%,-15%,14,9%,3,-1%
Cc1ccc(S(=O)(=O)N(C)C)cc1NC(=S)N1CCN(Cc2ccc3c(c2)OCO3)CC1,-3.6,-19%,0.6%,-5,18%,1,6%
CC(C)c1ccc(NC(=O)[C@@H](NC(=O)N2CC(=O)Nc3ccccc32)C(C)C)cc1,.,8%,-1.2%,-1,-8%,14,4%
O=C(COC(=O)C1C2CC3OC(=O)C1C3C2)Nc1cccc(Cl)c1 (stereo not given),2.0,1%,.,12,-2%,-4,21%
C/C(=N\NC(=O)c1ccc(Cl)cc1)c1ccc(N2CCOCC2)cc1,2.9,5%,-29%,-16,3%,-8,-9%
O=C(CCN1C(=O)C2C3C=CC(C3)C2C1=O)NCCN1CCCc2ccccc21 (stereo not given),-15,-1%,-16%,-11,-2%[15.4 µM],18,7%
Cc1ccc2c(c1)c(/C=C/c1cc[n+](C)cc1)c(C)n2C,?,?,1.0%,3,?,3,-17%
COc1cccc(NC(=S)N2CCN(C/C=C/c3ccccc3)CC2)c1,0.5,-16%,2.3%,6,-2%,6,-5%
CC12CC(c3ccccc3O1)C(C(=O)NCc1ccccc1)C(=O)N2 (stereo not given),-4.7,-2%,-2.9%,-3,-46%[inhibitor],2,3%
Cc1ccccc1OCc1nnc(SCc2cc(=O)[nH]c3ccccc23)o1,0.3,4%,-9.1%,-9,8%,7,-2%
CCOC(=O)N1CCN(C(=S)Nc2cc(OC)c(OC)cc2C(=O)OC)CC1,-1.2,-5%,5.2%,16,?,?,1%
Nc1ncnc(Nc2ccccc2C(F)(F)F)n1,2.5,10%[15.4 µM],1.3%,35,-41%[inhibitor],5,7%
Cc1cc(CN(C)C(=O)c2ccc(OC3CCN(CCc4ccccc4)CC3)cc2)on1,0.6,11%,-1.0%,-4,-1%,5,5%
CCOC(=O)Cc1csc(NC(=O)CN2CCN(c3ccccc3)CC2)n1,0.2,8%,1.1%,-9,-4%,26,18%
Cc1ccc2c(CN3C(=O)NC(C)(c4ccc5c(c4)OCO5)C3=O)cc(=O)oc2c1 (stereo not given),-3.3,6%,-14%,18,?,?,4%
O=CNc1ccc(OC(=O)c2cncc(Br)c2)cc1,-4.0,17%,.,-6,15%[15.4 µM],4,2%
Cc1ccc(-c2c(C#N)c(N)nc3c2CCCCC3)cc1,3.6,4%,-28%,-4,-5%,-13,11%
COc1ccc(CNS(=O)(=O)c2ccc3c(c2)C(C)(C)C(=O)N3C)cc1,-0.3,6%,-0.2%,8,-1%,2,9%
Cc1nc(CN(C)Cc2nc(Cc3cccc(F)c3)no2)cs1,-1.8,8%,.,19,10%,-6,14%
O=C1/C(=C/c2ccccn2)SC(=S)N1c1ccc(O)cc1,0.7,-8%,1.1%,20,-42%[inhibitor],9,0%
CCOC(=O)N1CCN(C(=O)C(C)N(c2ccccc2)S(C)(=O)=O)CC1 (stereo not given),1.9,.,.,4,-5%[15.4 µM],9,12%
Cc1cc(N2CCOCC2)ccc1/C=C\[N+](=O)[O-],7.5,18%,.,-18,3%[15.4 µM],2,?
O=C(c1ccco1)N(Cc1cccc(F)c1)C1CCS(=O)(=O)C1 (stereo not given),2.9,9%,-0.8%,6,?,-5,16%
Cc1ccc(N(C)S(=O)(=O)c2cccc(C(=O)NCCCN3CCCC3=O)c2)cc1,.,-4%,1.3%,3,33%,-3,.
CCN(CC)C(=O)CSCc1cnn(-c2ccccc2)c1-n1cccc1,5.0,-26%,0.7%,14,27%,21,?
O=C(NCc1ccco1)C1CCN(c2ccc(S(=O)(=O)N3CCOCC3)cc2[N+](=O)[O-])CC1,0.2,-4%,.,-14,16%,10,-1%
Cc1cc(=O)n2[nH]c(C)c(-c3ccccc3)c2n1,1.4,17%,-29%,8,4%,2,9%
Cn1cccc1C(=O)OCC(=O)NC(=O)NC1CCCCC1,0.3,11%,1.6%,-14,-11%,9,11%
Cc1ccc(C)c(Nc2nc3ccc(C)cc3n3cnnc23)c1,16,-11%,-2.1%,1,1%[15.4 µM],-6,-9%
COc1cc(N/N=C/c2ccccc2O)ncn1,5.0,13%,-3.3%,1,17%,8,2%
COc1cccc(NC(=O)CN(C)C(=O)CN2C(=O)c3ccc([N+](=O)[O-])cc3C2=O)c1,.,2%,.,0,-20%[15.4 µM],18,.
CCc1cccc(CC)c1-n1c(SCC(=O)N2CCc3ccccc32)nc(O)cc1=O,.,-14%,.,-7,6%,.,.
CC(=O)Nc1ccc(NC(=O)CC(C)n2ccnc2)cc1 (stereo not given),0.2,8%,.,-10,-2%[15.4 µM],-4,11%
CN1CCN(C(=O)CCN2C(=O)/C(=C/c3ccc(F)cc3)SC2=S)CC1,.,2%,-7.9%,6,-7%[15.4 µM],-10,-10%
CC(=O)c1ccc(OCC(O)CN(C)Cc2cccs2)cc1 (stereo not given),2.8,3%,-3.6%,-11,-11%,-6,56µM*
CCCC(=O)Nc1ccc(C)c(O)c1,4.7,5%,-2.5%,-16,-34%[inhibitor],1,7%
Cc1ccc(NC(NC(=O)c2cccs2)C(Cl)(Cl)Cl)cc1C (stereo not given),-0.5,-24%,1.2%,17,-40%[inhibitor],-19,18%
CC(=O)Nc1cccc(Nc2nc(-c3ccccc3F)nc3ccccc23)c1,1.4,-10%,.,0,?,-15,6%
O=C(CSc1nnnn1-c1ccc(Cl)c(C(=O)O)c1)NC(c1ccccc1)c1ccccc1,0.1,-3%,.,-7,-21%[15.4 µM],-1,13%
CC(C)c1ccc(NC(=O)CSc2n[nH]c(=O)n2C2CC2)cc1,.,12%,-0.8%,-22,30%,-15,7%
CCOC(=O)c1c(NC(=O)CN2CCC(C)CC2)sc(C)c1C,-0.1,-52%,-0.9%,-11,30%[15.4 µM],-11,-3%
Cc1ccc(S(=O)(=O)NCC(=O)OCC(=O)N2C(C)CCCC2C)cc1 (stereo not given),.,-4%,.,0,0%,.,.
COc1ccc(C(=O)N2CCN(c3nc4cc(C)cc(C)c4cc3C#N)CC2)cc1,.,.,?,42,1%,.,.
COCCCNC(=O)Cn1cc(C(=O)C2CC2)c2ccccc21,0.4,8%,0.5%,6,-35%[inhibitor],?,5%
Cc1ccc(/C=c2\sc3nc(-c4cccs4)nn3c2=O)o1,?,-3%,0.0%,-9,28%,12,-5%
O=C(Nc1ccc(Cl)cc1)c1ccco1,1.2,8%,-0.8%,-21,6%[15.4 µM],-30,0%
